AID504770 = E. coli YBA685 growth inhibition, screen for V. cholerae RctB inhibitors; AID 504770; E. coli YBA685 rctB-dependent plasmid, OD600 growth, 3 h; hits give low values; 130,000 tested, 0.27% active; z-score (no concentration beside the values);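 active = z-score under -2 on both plates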;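 note: wells of about 30 µL received 100 nL stock; score is relative to mean and SD of the test wells; the first replicate is given; strong numbers were not always called active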
Ba CapD inh = CapD enzyme inhibition; purified CapD enzyme, fluorescence intensity read-out; hits give low values; some hits fall short of the stated cut; z-score (concentration not given with the values); 140,000 tested, 0.23% active;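 active = z-score under -4 in either of two replicates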;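 note: stock transfer was 100 nL into about 40 µL; score is relative to mean and spread of the plate; one replicate is shown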
Active calls of the source: *; . = not tested or not shown; & = joins results of further samples. These rows are one share of the data; count on the stated rates, not on these rows.

SMILES	AID504770	Ba CapD inh
COc1ccccc1C1CC(c2c(-c3ccccc3)c3cc(Cl)ccc3[nH]c2=O)=NN1C(=O)CN1CCOCC1 (configuration not stated)	.	-0.35
Cc1cc(C(F)(F)F)nn1CC(=O)NN1C(=O)c2ccccc2C1=O	0.45	0.095
O=C(CSc1nnc(-c2ccccc2)n1-c1ccccc1)N/N=C/c1ccc(O)c(O)c1	-0.1	-0.15
CCOC(=O)C1=NN(C(=O)c2ccc([N+](=O)[O-])cc2)C(O)(c2ccc(Cl)cc2)C1 (configuration not stated)	.	-0.9
Cc1cc(C)nc(SCC(=O)OCc2cc(=O)n3ccsc3n2)n1	-0.15	.
CC1CCc2ccccc2N1 (configuration not stated)	-0.65	31
CN(C)C1N(C(=O)c2cccc3ccccc23)N=C2c3ccccc3S(=O)(=O)N21 (configuration not stated)	.	-0.32
Clc1nc2ccccc2c(N2CCCCC2)c1CNC1CC1	-0.45	.
O=C(c1ccc(OC(F)(F)F)cc1)c1cc2cc(Cl)cc(Cl)c2o1	.	0.28
O=C(COC(=O)C1(c2ccccc2)CC1)c1ccc[nH]1	0.6	.
CCOC(=O)CCCn1ncn2c(cc3sc(CC)cc32)c1=O	0.15	-1.4
Clc1ccc(-c2[nH]c(-c3cccc4ccccc34)nc2-c2ccccc2)cc1	.	4.8
Cc1ccccc1NS(=O)(=O)N(C)C	0.05	0.09
COc1ccc(N=C(C)c2c(C(F)(F)F)[nH]n(-c3nc4ccccc4s3)c2=O)cc1OC	-0.15	-0.24
CCC[n+]1ccc(-c2c[nH]c3ccccc23)cc1	-0.3	2.5
O=C(c1c(F)cccc1Cl)N1CCN(Cc2ccc3c(c2)OCO3)CC1	0.1	0.23
O=C(NCCc1cnc[nH]1)OCc1ccc(C#Cc2ccccc2)s1	.	-0.11
CC(C)(C)NS(=O)(=O)c1cc2c(c([N+](=O)[O-])c1)-c1c(cc(S(=O)(=O)NC(C)(C)C)cc1[N+](=O)[O-])C2=O	.	-0.095
CCOC(=O)c1cnc2c(c(C)nn2C)c1Oc1cc(Cl)cc(Cl)c1	.	8
Cc1ccc(S(=O)(=O)Nc2cccc(-c3cn4ccccc4n3)c2)cc1[N+](=O)[O-]	.	-0.38
CCn1cc(SCC(=O)Nc2cccc(OC)c2)c2ccccc21	-0.3	.
C=CCSC1=C(C#N)C(c2ccncc2)C(C(=O)Nc2ccc(Cl)cc2)=C(C)N1 (configuration not stated)	.	-0.69
Cc1ccc(C(=O)NC(=S)C(C#N)=P(c2ccccc2)(c2ccccc2)c2ccccc2)cc1	.	-0.53
CCSc1nc(-c2ccccc2)c(C#N)c(=O)[nH]1	-0.15	0.58
COC(=O)c1cc(Br)ccc1OC(=O)/C=C/c1ccccc1	0.2	0.045
CCC(=O)N1CCc2cc(S(=O)(=O)CCC(=O)Nc3nccs3)ccc21	0.35	0.3
CCCC(=O)c1cc2cc(Br)ccc2oc1=O	.	0
CC(C)c1ccc(CNC2CC2)cc1	0.25	.
O=C(Nc1ccc(Br)cc1)C1CC1(c1ccccc1)c1ccccc1 (configuration not stated)	.	-0.35
Cc1cc(C(=O)NCc2ccccc2)no1	-2	-0.32

Structural class: the compounds so far containing a cyano group
SMILES	AID504770	Ba CapD inh
C=CCSC1=C(C#N)C(c2ccncc2)C(C(=O)Nc2ccc(Cl)cc2)=C(C)N1 (configuration not stated)	.	-0.69
Cc1ccc(C(=O)NC(=S)C(C#N)=P(c2ccccc2)(c2ccccc2)c2ccccc2)cc1	.	-0.53
CCSc1nc(-c2ccccc2)c(C#N)c(=O)[nH]1	-0.15	0.58

The list goes on:
SMILES	AID504770	Ba CapD inh
COC(=O)c1ccc(COc2ccc3c(oc(=O)c4cc(OC)ccc43)c2C)o1	-0.5	3
CCOC(=O)C1CCCN(C(=O)c2cccc(Oc3ccccc3)c2)C1 (configuration not stated)	1.4	-1.2
O=C(O)c1cc(-c2ccccc2)nc2nc(N3CCCCC3)sc12	-0.05	.
COC(=O)c1cc(OC)nc(OC)c1	-0.05	39
Cc1ccc2nc(-c3ccccc3)cc(C(=O)NCc3ccccc3)c2c1	0.7	1.3
CC(C)NC(=O)CNCc1ccc(N2CCCCC2)cc1	1.1	.
CCN1C(=O)/C(=C/N(C)c2ccccc2)OC1=S	-1.8	0.19
CC(C)(C)C(=O)n1cc(-c2ccnc3ccccc23)c(-c2cccnc2)n1	.	-0.56
COc1ccc(S(=O)(=O)N2CCC(c3c[nH]c4ccccc34)CC2)cc1	.	-0.81
COc1cccc2cc(-c3nc4sc(C(=O)Nc5cccc(F)c5)c(C)c4c(=O)[nH]3)c(=O)oc12	0.15	2.8
O=c1[nH]c(SCc2ccccc2)nc2[nH]ncc12	-0.3	.
Nc1cccc2c1C(=O)N(CC(=O)O)C2=O	1.5	.
CN1C(=O)C(=Cc2cn(Cc3ccc(Cl)cc3)c3ccccc23)C(=O)N(C)C1=O	.	0.28
O=C(O)CN1C(=O)c2cccc3c(Br)ccc1c23	-0.35	-0.8
Cc1ccc(C2=CC(c3ccccc3)n3c(nc4ccccc43)N2)cc1 (configuration not stated)	.	-0.61
Cc1ccc2c(CSc3nnc(-c4ccccc4)o3)cc(=O)oc2c1	0.3	.
Cc1cc2nc3c(=O)[nH]c(=O)nc-3n(C(O)C(O)C(O)C(O)CO)c2cc1C (configuration not stated)	-0.85	-1.2
C=CCOc1ccc(C2Nc3ccccc3-c3nnc(SCC)nc3O2)cc1 (configuration not stated)	.	-0.14
COC(=O)Nc1ccc2c(c1)ncn2C1CCCCC1	-0.8	0.2
O=C(Nc1ccc2[nH]c(=O)[nH]c2c1)C(F)(F)F	-0.1	1.3
C/C(=N\n1c(C)nc2sc3c(c2c1=O)CCCC3)N(C)C	0.3	.
CC(C)(C)C1CCC2(CC1)NC(=S)N(c1ccccc1)N2 (configuration not stated)	.	0.42
O=C1C(=O)N(c2nncs2)C(c2cccc(Br)c2)/C1=C(/O)c1ccc(F)cc1 (configuration not stated)	.	-0.35
Cc1occc1-c1nnc(SCC2CCCCO2)n1-c1ccccc1 (configuration not stated)	-0.1	.
COc1ccc(C2(CNC(=O)CCC(=O)O)CCOCC2)cc1	-1.1	-0.095
CCOC(=O)NC(=O)/C(C#N)=C\Nc1c(C(=O)OCC)[nH]c2ccccc12	.	-0.17
CC(=O)C1=NN(c2ccccc2)C2(CCC(c3ccccc3)=NN2c2ccccc2)S1 (configuration not stated)	.	0.15
CSc1cccc(N/C(=N\S(=O)(=O)c2ccccc2)NN)c1	1.2	0.94
CC(C)N(Cc1ccccc1)S(=O)(=O)c1ccc(F)cc1	0.3	.
COc1ccc(C(=O)OCCC2CCCCN2C2=NS(=O)(=O)c3ccccc32)c(OC)c1 (configuration not stated)	.	-0.32

Structural class: the entries above containing a COOH group
SMILES	AID504770	Ba CapD inh
O=C(O)c1cc(-c2ccccc2)nc2nc(N3CCCCC3)sc12	-0.05	.
Nc1cccc2c1C(=O)N(CC(=O)O)C2=O	1.5	.
O=C(O)CN1C(=O)c2cccc3c(Br)ccc1c23	-0.35	-0.8
COc1ccc(C2(CNC(=O)CCC(=O)O)CCOCC2)cc1	-1.1	-0.095

Next compounds:
SMILES	AID504770	Ba CapD inh
CCOC(=O)CN1C(=O)C(O)(c2c[nH]c3ccccc23)c2ccccc21 (configuration not stated)	2.4	-0.75
O=C1CCCC2=C1C(c1ccc(Br)cc1)Nc1ccc(C(=O)c3ccccc3)cc1N2 (configuration not stated)	.	0.35
CCc1ccc(NC(=O)COC(=O)c2ccc3c(c2)nc(C)c(=O)n3CC)cc1	-0.35	.
CCN(CC)C(=O)c1noc2c1CCCCC2	1.2	-0.2
CCOC(=O)Nc1cc(=O)c2ccccc2o1	-0.85	-0.27
CCCN1C(=O)/C(=C/C=C2/Oc3ccccc3N2CCC(=O)O)N(CCO)C1=S	-0.85	70
O=C(NCc1ccccc1)C1CC=CCC1C(=O)NNc1ncnc2ccccc12 (configuration not stated)	-0.05	.
COC(=O)c1cccc(Nc2nc(-c3ccccc3)nc3ccccc23)c1	.	30
CCOC(=O)c1c(CN2CCN(C)CC2)n(-c2ccccc2)c2cc(Br)c(OC)cc12	.	-0.11
CCc1ccccc1NC(=O)CCCOc1cc(=O)n(C)c2ccccc12	1.3	0.085
COc1ccc(/C(C#N)=C/c2cc3ccccc3nc2SC)cc1OC	.	-0.67
COn1c(=O)c(=O)n(OC)c2ccccc21	1.8	-1.6
O=c1c2ccccc2n(Cc2cccc(F)c2)c(=O)n1C1CCCC1	0.75	0.89
CCNc1cc(N2CCC(C)CC2)c2noc3c2c1C(=O)c1ccccc1-3	-0.6	-0.56
COC(=O)CCC/C=C1/SCC(NC(=O)c2ccccc2)C1O (configuration not stated)	.	0.08
O=C(CCN1c2ccccc2Sc2ccccc21)NCCN1CCOCC1	-1.6	.
CCOC(=O)c1c(C)n(-c2ccccc2)c2c1cc(OC(=O)CC)c1ccccc12	.	1.2
CCOc1ccc(Nc2nc3ccccc3s2)cc1	-0.5	-0.15
Cn1c(CN2CCOCC2)nnc1SCC(N)=O	-0.55	.
O=C1c2ccccc2C(=O)N1CC1CC2C=CC1C2 (configuration not stated)	-0.55	.
CC1(C)CC(=O)C2=C(C1)Oc1ccccc1C2CC(=O)c1ccc(O)cc1 (configuration not stated)	-0.3	-0.27
CN(Cc1ccccc1)C(=O)C1CCN(S(=O)(=O)c2ccc3c(c2)CCCC(=O)N3)CC1	0.05	0.21
Cc1ccc(-c2nc3ccccc3n2OCc2c(F)cccc2Cl)cc1	.	0.56
CCC(SC1=Nc2ccccc2C2=NC(CCC(=O)NCc3ccc4c(c3)OCO4)C(=O)N12)C(=O)NC1CCCCC1 (configuration not stated)	-0.55	-0.15
COc1ccccc1Cn1c(SC)nc2ccccc2c1=O	-0.75	-0.015
COc1ccc(/C=C2\C=C(c3ccccc3)N(c3ccccc3)C2=O)cc1Br	.	-0.8
COc1ccc(NC2=Nc3cccc4cccc2c34)cc1	.	-0.84
COc1cccc2cc(-c3csc(NC(=O)CCC(=O)NC4CCCC4)n3)c(=O)oc12	.	2.7
CCOC(=O)Cc1csc(SCC2=C(C(=O)OCC)C(C)NC(=O)N2)n1 (configuration not stated)	-0.55	.
CSC1=NC(c2ccc(N(C)C)cc2)NN1 (configuration not stated)	-1.1	3.5

Part of the list above in order of length of the SMILES, rising:
SMILES	AID504770	Ba CapD inh
O=C1c2ccccc2C(=O)N1CC1CC2C=CC1C2 (configuration not stated)	-0.55	.
O=C1CCCC2=C1C(c1ccc(Br)cc1)Nc1ccc(C(=O)c3ccccc3)cc1N2 (configuration not stated)	.	0.35
CCC(SC1=Nc2ccccc2C2=NC(CCC(=O)NCc3ccc4c(c3)OCO4)C(=O)N12)C(=O)NC1CCCCC1 (configuration not stated)	-0.55	-0.15

Next records follow:
SMILES	AID504770	Ba CapD inh
Cc1ccc(C(=O)Oc2ccc3c(c2)ncn3C)cc1	1.2	0.24
COc1ccc(N2C(=O)CCC(C(=O)NC3=NCCS3)C2c2ccccc2)cc1 (configuration not stated)	-0.2	.
O=C(CCCN1C(=O)c2cccnc2Sc2ccccc21)NC1CCCC1	0.3	0.9
CC(=O)Nc1ccc(Oc2ccc(S(=O)(=O)N3CCCC3)cn2)cc1	-1.5	.
O=c1c2cccnc2n(Cc2ccccc2F)c(=O)n1C1CCCCC1	-0.1	-0.21
Cn1c(C(=O)N2CCN(Cc3ccccc3)CC2)cc2c(=O)n(C)c3ccccc3c21	0.15	-0.12
Cc1ccc(OC(=O)CSc2nnc(-c3ccco3)n2-c2ccccc2)cc1	-0.75	.
CC1(C)CC(=O)C2=C(C1)N(c1ccccc1)C(=O)CC2c1ccc([N+](=O)[O-])cc1 (configuration not stated)	.	-0.39
CC1S/C(=C\C#N)NC1=O (configuration not stated)	0.6	.
Cc1ccc(NC(=O)NC2CCN(C)CC2)cc1Cl	2.5	-0.33
Clc1ccc(Nc2nc(NCCN3CCOCC3)nc(N3CCOCC3)n2)cc1	.	-0.54
Cc1cc(=O)[nH]c(=S)[nH]1	-0.35&-0.35	0.11
C=CCNC(=O)c1c(N)n(CCc2ccccc2F)c2nc3ccccc3nc12	0.75	16
COc1cc(OC)nc(CSc2ccc(NC(=O)NS(=O)(=O)c3ccc(C)cc3)cc2)n1	.	-0.3
O=C(O)c1ccccc1OC(F)F	-0.5	.
Cc1ccc(S(=O)(=O)Nc2c(C)ccc3nsnc23)cc1	-0.5	-0.21
N#CC1=C(N)Oc2n[nH]c(-c3ccc(Cl)c(Cl)c3)c2C1c1ccc(O)c(O)c1 (configuration not stated)	.	-0.28
CC(=O)Nc1ccc(N2C(=O)/C(=C/c3ccc(Cl)cc3)C=C2c2ccccc2)cc1	.	-1.5
CCn1c(CCCNC(=O)c2cccs2)nc2ccccc21	0.15	-0.77
COc1cc(C(=O)NCc2nc3ccccc3[nH]2)cc(OC)c1OC	-0.7	0.19
CCOc1ccc(S(=O)(=O)N2c3cccc4cccc(c34)S2(=O)=O)c([N+](=O)[O-])c1	.	-0.61
COC(=O)c1ccccc1NC(=O)CS(=O)(=O)c1nnnn1-c1cccc2ccccc12	1.5	0.17
O=C(O)c1c(F)c(F)cc2ccccc12	-0.05	0.61

Assay outcomes as filed in PubChem.
